Compound activity as filed in PubChem.
KCNQ2 pot: KCNQ2 (rat) channel potentiation; CHO-K1 KCNQ2, FluxOR thallium flux fluorescence; hits give high values; B-score at 10 µM; actives 0.54% (n = 310,000); AID 2239;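 active = fluorescence ratio B-score at least 3 SD of library B-scores, with initial fluorescence B-score within 3 SD, cut at about 5.3 in these data; same plate scores as AID 2156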;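 also: B-score of peak minus minimum over baseline fluorescence ratio after K+ and Tl+ stimulus; positive B-score means potentiation of KCNQ2 with more thallium influx and brighter signal; only the inactives scoring about 0 or higher are listed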
Target sequence (O88943 whole entry, looked up): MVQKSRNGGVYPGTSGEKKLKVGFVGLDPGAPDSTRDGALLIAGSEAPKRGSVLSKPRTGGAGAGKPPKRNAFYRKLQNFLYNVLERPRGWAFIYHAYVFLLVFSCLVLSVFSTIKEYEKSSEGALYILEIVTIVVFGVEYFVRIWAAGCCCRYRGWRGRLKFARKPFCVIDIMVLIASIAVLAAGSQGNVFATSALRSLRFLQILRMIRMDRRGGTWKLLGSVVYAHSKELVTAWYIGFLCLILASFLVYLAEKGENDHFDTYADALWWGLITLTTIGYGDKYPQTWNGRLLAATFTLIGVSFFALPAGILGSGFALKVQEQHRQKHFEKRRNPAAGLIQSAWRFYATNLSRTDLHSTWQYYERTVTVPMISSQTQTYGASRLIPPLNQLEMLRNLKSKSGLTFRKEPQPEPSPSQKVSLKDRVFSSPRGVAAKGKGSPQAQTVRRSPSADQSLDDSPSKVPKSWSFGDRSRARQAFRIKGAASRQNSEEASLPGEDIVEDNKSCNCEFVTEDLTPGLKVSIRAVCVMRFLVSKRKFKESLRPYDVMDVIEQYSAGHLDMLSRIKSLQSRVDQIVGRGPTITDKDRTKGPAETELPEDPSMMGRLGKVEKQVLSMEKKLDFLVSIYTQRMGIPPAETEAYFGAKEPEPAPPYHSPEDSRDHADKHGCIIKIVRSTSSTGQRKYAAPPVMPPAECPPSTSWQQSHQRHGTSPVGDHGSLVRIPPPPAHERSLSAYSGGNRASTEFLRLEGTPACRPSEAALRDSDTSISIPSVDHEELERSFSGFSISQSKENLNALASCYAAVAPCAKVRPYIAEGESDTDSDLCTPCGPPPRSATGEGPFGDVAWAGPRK
KCNQ2 pot baseline: second read-out of KCNQ2 pot, no call of its own (marks repeat the call); B-score; compound at 10 µM; measured here: initial fluorescence intensity artifact check;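 brightness before thallium and not channel activity; 0 = typical well and far values either way flag optical interference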
* marks the source's active call; other numbers are inactive results.

No.	Compound	KCNQ2 pot	KCNQ2 pot baseline
1	Cc1ccc(C)c(NC(=O)CCOc2ccccc2)c1	0.68	-0.91
2	COc1ccc(/C=N/NC(=O)c2cccc([N+](=O)[O-])c2)c2ccccc12	0.87	-1.6
3	Cc1nc2ccccn2c1C(=O)CSc1ccccc1Cl	2.5	1.9
4	CCN(c1ccc(OC)cc1)S(=O)(=O)c1nnc(NC(=O)CC(C)C)s1	1.8	-0.36
5	O=C(O)C1CCCCC1C(=O)NCCc1ccc(Cl)cc1 (configuration not stated)	0.4	-1.2
6	Cc1nc2oc3c(=O)[nH]cnc3c2c2c1COC(C)(C)C2	1	2.7
7	CN(CC(=O)O/N=C(\N)c1ccc(Br)cc1)S(=O)(=O)c1ccccc1	1.2	-0.14
8	NC(=O)C1CCN(c2nc(-c3ccccc3)nc3ccccc23)CC1	0.42	0.81
9	O=C(NC(=S)Nc1nc(-c2ccc([N+](=O)[O-])cc2)cs1)c1ccco1	10*	-1.6*
10	COc1ccnc(Oc2ccc(Cl)cc2)c1C#N	0.87	0.29
11	CCCCNC(=O)COC(=O)c1cc2c(C)nn(-c3ccccc3)c2s1	0.46	1.3
12	Oc1ccc(O)c(/C(=N/Nc2ccccc2)c2ccccc2)c1	0.72	-0.61
13	Cn1c(=O)c2sccc2n2c(CCCC(=O)Nc3ccc(F)cc3F)nnc12	0.13	1.3
14	Cc1c(NC(=O)Nc2ccccc2Cl)c(=O)n(-c2ccccc2)n1C	0.21	-0.73
15	Cc1ccc(S(=O)(=O)N(CC(=O)NN=C2CCN(C)CC2)c2ccc(C(C)C)cc2)cc1	1.6	-0.26
16	Cc1ccc(S(=O)(=O)N(C)C)cc1NC(=O)COC(=O)/C=C/c1ccc2ccccc2n1	0.01	0.28
17	COc1ccc(-c2csc(CCn3nc(C)cc3C)n2)cc1OC	0.53	0.72
18	Cc1occc1-c1nnc(SCC(=O)c2c(N)n(Cc3ccccc3)c(=O)n(C)c2=O)n1C	0.76	0.63
19	CCOC(=O)N/N=C1\CCS(=O)(=O)c2ccc(Cl)cc21	0.64	0.57
20	Cc1ccc(OCC2Cn3c(nc4c3c(=O)n(C)c(=O)n4C)O2)cc1 (configuration not stated)	0.94	-0.49
21	Cc1ccc(N2C(=O)C(CC(=O)Nc3cccc(F)c3)N(C3CC3)C2=O)cc1 (configuration not stated)	0.12	-3.2
22	O=c1cnnc(N/N=C/C2CC=CCC2)[nH]1 (configuration not stated)	1	1.1
23	O=C(O)CC1S/C(=N/N=C/c2ccc([N+](=O)[O-])cc2)N(c2ccc(O)cc2)C1=O (configuration not stated)	0.15	0.94
24	CC1(C)CC(=O)C2=C(C1)OC(c1ccc(O)cc1)C(C#N)=C2N (configuration not stated)	1.3	-2.1
25	CNC(=O)c1snnc1-c1ccccc1	0.29	-0.26
26	CC(=O)Nc1ccc(S(=O)(=O)NCc2ccc3[nH]c(C)cc3c2)cc1	5.4*	-3.7*
27	NC(=O)N/N=C/c1ccc2cccc(OCc3ccccc3)c2n1	0.02	-3.1
28	C/C(=N\NS(=O)(=O)c1ccc(C)c([N+](=O)[O-])c1)c1ccc2c(c1)OCO2	0.35	-0.12
29	COc1cc2c(cc1NC(=O)CSc1nnc(COc3ccc(Cl)cc3)n1C)oc1ccccc12	0.35	-2.8
30	NC(=S)N/N=C/c1cccc(O)c1O	0.32	-0.86
31	CC(C)NC(=O)CN1CCC(c2ccccc2)C(O)C1 (configuration not stated)	0.52	-0.08
32	CCn1nc(C)cc1Nc1ccccc1	0.21	-0.3
33	CC(=O)Nc1ccc(NC(=O)COC(=O)CCc2nc3ccccc3s2)cc1	1.2	3.4
34	CC(=O)C1C(c2cccc(F)c2)c2c(n[nH]c2C)CC1(C)O (configuration not stated)	0.05	-0.08
35	Cc1ccc(S(=O)(=O)NC(=NCC(=O)O)c2ccc(F)cc2)cc1	1.4	1.3
36	O=C(NCc1ccc(N2CCCC2=O)cc1)c1cc(COc2c(F)cccc2F)on1	0.61	-1.1
37	Cc1nc2c(C)cccc2c2c1CCN2c1ccccc1F	0.07	-0.22
38	CCOC(=O)CN(C(=O)CNC(=O)c1ccco1)C(C(=O)NC1CCCCC1)c1cccc(OC)c1 (configuration not stated)	0.96	0.82
39	COCCN(C(=O)COC(=O)CCOc1ccccc1)c1c(N)n(Cc2ccccc2)c(=O)[nH]c1=O	1.1	0.3
40	COc1c(C)cc(Br)cc1C(=O)Nc1ccc(C)cc1[N+](=O)[O-]	0.17	-0.42
41	CCO[C@H]1OC(C(N)=O)=C[C@@H](c2ccccc2)[C@@H]1CCCO	0.89	0.09
42	O=C(CCS(=O)(=O)Cc1ccc(Cl)cc1)NCCc1ccccc1	2	2.3
43	N#CC1=C(SCC(=O)c2ccc(Cl)cc2)NC2=C(C(=O)CCC2)C1c1ccco1 (configuration not stated)	0.89	0.73
44	Cn1cc(C(=O)NC2CCCCC2)c(=O)c2cc(S(=O)(=O)N3CCCC3)ccc21	0.73	-1.3
45	CN(C)CCCN1C(=O)C(O)=C(C(=O)c2cc3ccccc3o2)C1c1ccccc1 (configuration not stated)	1.2	1.3
46	Cn1nc(C(=O)NNC(=O)COc2ccccc2)c2ccccc2c1=O	0.09	0.3
47	Cc1nc(-c2cn[nH]c2)c2cc(C)oc2n1	1.7	0.03
48	Cc1ccc2nc(SCC(=O)N3CCCC3)nc(=O)n2c1	0.44	-0.02
49	CC(=O)Oc1ccc(S(=O)(=O)c2ccc(OC(C)=O)cc2)cc1	0.17	1.9
50	COc1ccc(CCNC(=O)CSc2ccc(-c3cccs3)nn2)cc1	0.28	-0.07

Three compounds already listed, ordered by the value under KCNQ2 pot, low to high.
#	molecule	KCNQ2 pot
46	Cn1nc(C(=O)NNC(=O)COc2ccccc2)c2ccccc2c1=O	0.09
48	Cc1ccc2nc(SCC(=O)N3CCCC3)nc(=O)n2c1	0.44
38	CCOC(=O)CN(C(=O)CNC(=O)c1ccco1)C(C(=O)NC1CCCCC1)c1cccc(OC)c1 (configuration not stated)	0.96

(next part)
No.	Compound	KCNQ2 pot	KCNQ2 pot baseline
51	O=C(Nc1cccc(Cl)c1)NC1CC2CCC(C1)N2Cc1cccs1 (configuration not stated)	0.49	-0.27
52	CCOC(=O)C(C(=O)OCC)C1CCS(=O)(=O)C1 (configuration not stated)	0.71	1.1
53	Cc1cccc(N(C(=O)c2sc(C)nc2C)C(C(=O)NCC2CCCO2)c2ccccc2)c1 (configuration not stated)	1.1	-0.06
54	Fc1ccccc1Cn1nnc2c(NCc3ccccn3)ncnc21	0.21	0.77
55	Cc1ccc(-c2nc(CS(=O)CC(=O)NC3CCCC(C)C3C)c(C)o2)cc1 (configuration not stated)	1.9	0
56	CCN(CC)S(=O)(=O)c1cccc(C(=O)OCC(=O)Nc2ccccc2OC(F)F)c1	0.51	0.97
57	NC(=O)/C(=C\c1ccccc1)NC(=O)/C=C/c1ccccc1	2.1	0.02
58	COc1c(S(=O)(=O)N2CCN(C)CC2)ccc(Cl)c1Cl	3.4	0.67
59	CCOC(=O)C[N+]1(C)CCN(C(C)=O)CC1	0.66	1.5
60	Cc1ccc(-c2nnc(SC(C)C#N)n2N)cc1 (configuration not stated)	1.5	0
61	COCCn1c(SCC(=O)N2CCc3ccccc32)nc2c(c1=O)SC(C)C2 (configuration not stated)	1	-2
62	O=C(CSc1n[nH]c(-c2ccco2)n1)Nc1ccccc1	1.3	-0.29
63	Cc1cc(C)n(C(=O)CNC(=O)c2ccc(Cl)cc2Cl)n1	0.04	-0.02
64	O=C(O)c1cnn2c(C(F)F)cc(C3CC3)nc12	0.97	0
65	Cc1ccc(C)c(N2CCN(C(=O)c3ccc(N4CCCC4=O)cc3)CC2)c1	0.15	0.15
66	O=C(NCc1ccccc1)C1CCCN(c2nc3ccsc3c(=O)s2)C1 (configuration not stated)	0.71	1.8
67	CCCC(=O)Nc1nnc(-c2ccc3c(c2)OCO3)s1	1.2	-0.6
68	COc1cc2c(OC)cccc2cc1C(=O)O	1.3	-0.58
69	COc1ccc(C(C#N)Nc2ccccc2)cc1 (configuration not stated)	1	-0.29
70	CC1CN(c2ccc([N+](=O)[O-])nc2)CC(C)O1 (configuration not stated)	0.97	2.3
71	CC(=O)Nc1ccc(S(=O)(=O)NNC(=O)COc2cccc(C)c2)cc1	0.01	-0.04
72	CCNS(=O)(=O)c1ccc(CCC(=O)Nc2ccc3c(c2)OCCO3)cc1	1.4	0.32
73	CCOC(=O)C1CCN(C(=O)CCS(=O)(=O)Cc2ccccc2)CC1	0.01	-0.85
74	COC(=O)c1cn(NC(=O)c2ccc3c(c2)OCO3)c(=O)c2ccccc12	0.04	-0.45
75	CC1CCc2onc(C(=O)NCc3ccco3)c2C1 (configuration not stated)	2	0.09
76	CS(=O)(=O)N1CCC(CO)(Cc2ccccc2C(F)(F)F)CC1	0.22	1.1
77	COc1ccc(C(=O)Nc2ccc3c(c2)OCCO3)cc1Br	1.7	0
78	O=C(O)CC(c1ccccc1)n1cccc1 (configuration not stated)	0.21	1.4
79	CCOC(=O)c1ccc(NC(=O)CC2C(=O)N(c3ccccc3)C(=O)N2CCCOC)cc1 (configuration not stated)	0.62	-0.64
80	CNC(=O)C1CC(=O)N/C(=N/N=C(\C)c2cccs2)S1 (configuration not stated)	1.2	-0.6
81	COc1ccc(C)cc1Nc1c2c(nc3ccccc13)CCC2	0.19	-0.43
82	Nc1nonc1-n1nnc(C(=O)N/N=C/c2cccs2)c1-c1ccc2c(c1)OCO2	0.07	0.17
83	NC(=O)COC(=O)c1ccccc1Oc1ccccc1	4.1	1.2
84	O=C(C1CCC1)N1CCN(Cc2ccccc2)CC1	0.67	-0.37
85	Cc1c(NC(=O)c2ccc(-c3ccc([N+](=O)[O-])cc3Cl)o2)c(=O)n(-c2ccccc2)n1C	1.1	-0.73
86	O=C(NCc1cccc(F)c1)C1CCC(=O)N(CC2CCCCC2)C1 (configuration not stated)	0.89	-0.53
87	COc1ccc(NC(=O)C2CCC(=O)N2S(=O)(=O)c2ccc(C)cc2)c(OC)c1 (configuration not stated)	0.26	2
88	Nc1cc(C(=O)N2CCCC2)cc(C(=O)N2CCCC2)c1	0.02	0.92
89	Cn1c(O)c(N=Nc2nc(-c3ccccc3)cs2)c2ccccc21	22*	-1.6*
90	Cc1ccc(C)n1NC(=O)c1ccco1	0.02	1.1
91	C(=C\c1cc(/C=C/c2ccccc2)ncn1)/c1ccccc1	0.91	-1.8
92	COc1ccc2cc(C)c(SCC(=O)Nc3cc(C)on3)nc2c1	1	-0.76
93	COc1ccccc1N1CCN(CC(O)COc2ccc3c(C)cc(=O)oc3c2)CC1 (configuration not stated)	0.73	-0.38
94	COc1cc(OC)cc(C(=O)NCC(=O)OCC(=O)/C=C2/N(C)c3ccccc3C2(C)C)c1	0.63	-0.01
95	Cc1cccc(OCCC(=O)Nc2ccc(S(=O)(=O)N3CCCC3)cc2)c1	0.81	2.1
96	Cc1ccc(NC(=S)N2CCN(c3ccccn3)CC2)cc1C	1	-1.6
97	Clc1ccc(C[n+]2cc(-c3ccc(Cl)cc3)n3c2CCC3)cc1	1.1	0.07
98	COc1cccc(OC)c1C(=O)Nc1ccc(C(=O)NCc2ccccc2)cc1	0.07	0.44
99	CCOc1ccc(C2C(C(=O)c3ccc(C)o3)=C(O)C(=O)N2c2cc(C)on2)cc1OC (configuration not stated)	0.31	-0.25
100	Cc1cccc2cn[nH]c12	1.3	-1.4

Quoted at random: 6 records from the list, in no set order.
No.	Compound	KCNQ2 pot	KCNQ2 pot baseline
87	COc1ccc(NC(=O)C2CCC(=O)N2S(=O)(=O)c2ccc(C)cc2)c(OC)c1 (configuration not stated)	0.26	2
93	COc1ccccc1N1CCN(CC(O)COc2ccc3c(C)cc(=O)oc3c2)CC1 (configuration not stated)	0.73	-0.38
98	COc1cccc(OC)c1C(=O)Nc1ccc(C(=O)NCc2ccccc2)cc1	0.07	0.44
80	CNC(=O)C1CC(=O)N/C(=N/N=C(\C)c2cccs2)S1 (configuration not stated)	1.2	-0.6
79	CCOC(=O)c1ccc(NC(=O)CC2C(=O)N(c3ccccc3)C(=O)N2CCCOC)cc1 (configuration not stated)	0.62	-0.64
78	O=C(O)CC(c1ccccc1)n1cccc1 (configuration not stated)	0.21	1.4

(cont.)
No.	Compound	KCNQ2 pot	KCNQ2 pot baseline
101	O=C(CSc1nc2ccccc2o1)NCc1n[nH]c(=O)c2ccccc12	2.5	0.52
102	CCc1ccc(NC2=NC(C(=O)c3ccccc3)CC(=O)N2)cc1 (configuration not stated)	1	-1.1
103	CCN(CC)CC(O)Cn1c(-c2ccccc2Cl)nc2ccccc21 (configuration not stated)	1.2	-0.78
104	COc1ccc(NC(=O)OC(C)C)cc1	0.97	1.4
105	CCc1ccc(N/C(N)=N/c2nc(CSc3ccccn3)cc(=O)[nH]2)cc1	1	0.65
106	COc1ccc(NC(=O)COC(=O)CCOc2ccccc2C)cc1Cl	0.63	0.44
107	COCC(=O)Nc1cc([N+](=O)[O-])ccc1C	1	2.1
108	C=CCNC(=O)c1sc(SC)cc1-c1ccc(Cl)cc1	0.43	1
109	CCOC(=O)/C(C#N)=C/c1ccc(OC(=O)c2ccccn2)cc1	1.9	0.77
110	CCCCCCCCCC(=O)N[C@H](CN1CCOCC1)[C@H](O)c1ccccc1	0.62	-0.49
111	O=[N+]([O-])c1ccc(O)c(C=Nc2ccc3c(c2)OCCO3)c1	1.3	-1.9
112	CCOc1ccc(CNc2ccc3c(c2)ncn3C)cc1	2.5	-0.87
113	CCOc1ccc(C(=O)N2CCSC2=S)cc1	0.03	0.14
114	Cc1n[nH]c(C)c1CCCCOc1ccccc1[N+](=O)[O-]	0.69	0.05

Look-ups from the list:
Value for #58 under KCNQ2 pot: 3.4
Value for #5 under KCNQ2 pot: 0.4
Value for #87 under KCNQ2 pot: 0.26
Value for #96 under KCNQ2 pot baseline: -1.6

Only part of the results is shown; the hit share may differ from the screen's.
